From PubChem
Mtb growth: Mycobacterium tuberculosis H37Rv growth inhibition, cell based, confirmatory dose response (AID 1949); most inactive calls were filed without a number and no value below 0 was filed; M. tuberculosis H37Rv growth inhibition; inhibition, % at 10 µg/mL; hits with a dose series show IC50 in µg/mL; 100,000 compounds, 1.6% hits;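 active means confirmed in a dose series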;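 further: bacteria grown 7 days with compound before Alamar blue readout; 0% = untreated bacteria and 100% = reference antibiotic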
Numbers without * were called inactive; i = inactive.

SMILES	Mtb growth
Cc1ccccc1CN(c1ccc(C(=O)Nc2ccccc2C(=O)N2CCCC2)cc1)S(C)(=O)=O	i
N#CCCN(CCC#N)C(=O)Cc1ccc(Cl)cc1	i
O=C(CSc1nnc(CN2CCOCC2)n1-c1ccccc1)N1CCN(c2ccccc2)CC1	i
Cc1cc(NS(=O)(=O)c2ccc(NC(=O)Nc3ccc(Cl)cc3)cc2)no1	i
COc1ccc(CNc2ncnc3c2cnn3-c2ccccc2)cc1	i
Cc1ccc(NC(=S)NC(=O)COc2ccccc2Cl)cc1C	i
O=C(Nc1ccccc1Cl)c1cc([N+](=O)[O-])ccc1N1CCCCC1	i
COc1ccc(-c2ccc(C#N)c(SCC(=O)Nc3cc(OC)c(OC)c(OC)c3)n2)cc1	0%
CC(=O)c1cccc(NC(=O)COc2ccc(S(=O)(=O)N(C)Cc3ccccc3)cc2)c1	1%
O=C(CN1CCOCC1)Nc1sc2c(c1C(=O)Nc1ccc(Br)cc1)CCC2	i
CC(C)=C1C2CCC1C(C(=O)N1CCN(c3ccccc3Cl)CC1)C2C(=O)O (stereo unspecified)	i
Cc1ccc(S(=O)(=O)N(Cc2ccc(Cl)cc2)c2ccccc2C(=O)Nc2cccnc2)cc1	1%
c1ccc(Oc2nc(N3CCOCC3)nc(N3CCOCC3)n2)cc1	i
Cc1ccccc1CC1S/C(=N\N=C\c2cccs2)NC1=O (stereo unspecified)	i
Cc1cccc(Cn2c(NCc3ccc4c(c3)OCO4)nc3c2c(=O)n(C)c(=O)n3C)c1	1%
Cc1ccc(S(=O)(=O)N2CCN(c3ccc([N+](=O)[O-])c(NCC(C)(C)C)c3)CC2)cc1	0%
CC(SCc1ccccc1)C(=O)Nc1ccccc1C(F)(F)F (stereo unspecified)	i
CCOc1ccc(S(=O)(=O)NCc2ccncc2)cc1	i
O=C(O)c1ccc(CSc2nnc(-c3ccccc3)n2Cc2ccccc2)cc1	0%
COc1ccc(Cc2nn3c(Cc4ccccc4)nnc3s2)cc1	i
O=C(CSc1nnc(-c2ccc(Br)cc2)o1)N1CCCCCC1	i
O=C(Cc1ccc(-c2ccccc2)cc1)NCc1ccccn1	i
COc1ccc(COc2ccc3c(C)c(C)c(=O)oc3c2)cc1	i
CCOc1ccc(NC(=O)Cn2c(=O)oc3ccccc32)cc1	i
COC(=O)c1sc(NC(=O)c2ccc(Cl)c(Cl)c2)c(C(=O)OC)c1C	i

In the list so far, 2 have a cyano group:
SMILES	Mtb growth
N#CCCN(CCC#N)C(=O)Cc1ccc(Cl)cc1	i
COc1ccc(-c2ccc(C#N)c(SCC(=O)Nc3cc(OC)c(OC)c(OC)c3)n2)cc1	0%

A draw from above in order of formula weight, highest first.
SMILES	Mtb growth
O=C(CSc1nnc(CN2CCOCC2)n1-c1ccccc1)N1CCN(c2ccccc2)CC1	i
COc1ccc(-c2ccc(C#N)c(SCC(=O)Nc3cc(OC)c(OC)c(OC)c3)n2)cc1	0%
Cc1ccc(NC(=S)NC(=O)COc2ccccc2Cl)cc1C	i

Further compounds
SMILES	Mtb growth
COc1ccc(NC(=S)NCc2cccs2)c(OC)c1	5%
Cc1cc(Cl)ccc1OCC(=O)Nc1sc(Cc2ccccc2)c(C)c1C(N)=O	2%
COc1cc(-c2nnn(CC(=O)N3CCCCC3)n2)cc(OC)c1OC	i
CCN1CCN(CCOc2ccccc2OCc2ccccc2)CC1	i
COc1ccc([N+](=O)[O-])cc1NC(=O)C(C)Sc1ccc(C)cc1 (stereo unspecified)	i
O=Cc1cn(CC(=O)NCc2ccc3c(c2)OCO3)c2ccccc12	i
COc1ccc(N2CCN(C(=O)CC(c3ccccc3)c3ccccc3)CC2)cc1	i
CCOC(=O)Nc1nc(C)c(C(=O)N(C)C)s1	i
CCCCNCCOc1cc(C)ccc1C(C)(C)C	i
O=C(CN(c1cccc(C(F)(F)F)c1)S(=O)(=O)c1ccccc1)NC1CCCCCC1	i
O=C(COc1ccccc1)Nc1ccc(-c2nc3ccccc3c(=O)o2)cc1	21%
COc1cccc(OCCOCCOc2ccc(C)cc2)c1	2%
COc1cccc(C(=O)NCCCc2ccccc2)c1OC	1%
COc1ccc(CC(=O)Nc2ccccc2C(=O)Nc2ccccc2)cc1	i
CCc1ccc(OC(=O)c2ccc(C)cc2)cc1	i
N#Cc1ccccc1C(C(N)=O)(c1ccccc1)C(C(N)=O)(c1ccccc1)c1ccccc1C#N (stereo unspecified)	21%
CN1CCN(S(=O)(=O)c2ccc(Oc3ccccc3Cl)cc2)CC1	i
O=C(CCn1nc(-c2ccccc2)c2ccccc2c1=O)Nc1ccc(F)cc1	i
Cc1cc2sc(NC(=O)COc3ccccc3C)nc2cc1Cl	i
CCOc1ccc(C(=O)Nc2ccccc2C(C)CC)cc1Cl (stereo unspecified)	5%
Cc1ccc(C(C)(C)C)c(OCCN2CCCC2)c1	i
CC1CCN(C(=O)Cn2cnc3scc(-c4ccc(Cl)cc4)c3c2=O)CC1	i
CCc1cccc(NS(=O)(=O)c2ccc(NC(C)=O)cc2)c1	i
Cc1sc(NC(=O)c2cnccn2)c(C(N)=O)c1C	14%
O=C(Nc1cccc(NC(=O)c2ccccc2F)n1)c1ccccc1F	i

Shown in CSV form: 2 of the compounds above.
canonical_smiles,Mtb growth
CCOc1ccc(C(=O)Nc2ccccc2C(C)CC)cc1Cl (stereo unspecified),5%
Cc1ccc(C(C)(C)C)c(OCCN2CCCC2)c1,i

The listing picks up with the 5 entries that preceded the break.
SMILES	Mtb growth
Cc1ccc(C(C)(C)C)c(OCCN2CCCC2)c1	i
CC1CCN(C(=O)Cn2cnc3scc(-c4ccc(Cl)cc4)c3c2=O)CC1	i
CCc1cccc(NS(=O)(=O)c2ccc(NC(C)=O)cc2)c1	i
Cc1sc(NC(=O)c2cnccn2)c(C(N)=O)c1C	14%
O=C(Nc1cccc(NC(=O)c2ccccc2F)n1)c1ccccc1F	i
Cc1ccc(-c2nn3c(C)nnc3s2)cc1NC(=O)c1ccc(C#N)cc1F	6%
CCc1ccc2nc(Nc3nc(C)c(Cc4cccc5ccccc45)c(=O)[nH]3)nc(C)c2c1	2%
CCOc1ccc(-c2n[nH]c(C(=O)N/N=C/c3ccc(O)cc3O)c2C)cc1	0%
CS(=O)(=O)c1ccc(N2CCN(C3CC(=O)N(c4ccc(F)cc4)C3=O)CC2)cc1 (stereo unspecified)	3%
CCOC(=O)c1c(NC(=O)Cc2ccccc2)sc(C(N)=O)c1C	i
COc1cccc(-n2c(-c3ccc(Cl)cc3)n[nH]c2=S)c1	i
O=c1ccn(Cc2ccccc2Cl)cc1	i
O=S(=O)(N1CCCCC1)N1CCN(S(=O)(=O)N2CCOCC2)CC1	i
CCC(Oc1ccccc1)C(=O)Nc1ccc(NC(C)=O)cc1 (stereo unspecified)	i
CCOc1cccc(C(=O)Nc2cccc(NC(=O)c3cccc(Cl)c3)c2)c1	i
Cc1ccc(-c2nnc(N3CCN(C(=O)CSc4nc(C)cc(C)n4)CC3)c3ccccc23)cc1	i
CCC(CO)NC(=O)C(=O)Nc1ccc(C)cc1 (stereo unspecified)	i
CCCCNC(=O)C(=O)NCCCCCO	i
COc1ccc(OCC(=O)Nc2nc(-c3ccc(Cl)cc3)cs2)cc1	i
CCC(C)c1ccc(NC(=S)NCCn2cc(Br)cn2)cc1 (stereo unspecified)	i
Fc1ccc(NC(=S)NCCCN2CCCCCC2)cc1Cl	i
CCOc1ccc(NC(=O)CSc2c(-c3ccccc3)c3cc(Cl)ccc3[nH]c2=O)cc1	i
COC(=O)COc1ccc(NC(=O)COc2ccc(C)c(C)c2)cc1	3.4µg/mL*
N#Cc1cn(Cc2ccc(Br)cc2)c2ccccc12	6%
O=C(Nc1cccc(C(=O)Nc2nnc(C(F)(F)F)s2)c1)c1ccccc1	i
CC(C)Oc1ccc(C(=O)N2CCN(c3ccc([N+](=O)[O-])c(NC4CC4)c3)CC2)cc1	i
O=C(CSc1nnc(-c2ccc(Br)cc2)o1)Nc1ccccc1F	i
COc1cc(Br)cc2cc(C(=O)NCC3CCCO3)c(=O)oc12 (stereo unspecified)	i
CCCN1C(=O)c2ccc(-c3nc4cc(OC)c(OC)cc4c(=O)o3)cc2C1=O	i
COc1ccc(NC(=O)CC(c2ccco2)c2ccccc2OC)cc1 (stereo unspecified)	i
SMILES	Mtb growth
Cn1c(Cc2ccccc2)nnc1SCC(=O)NC1CCCCC1	i
O=C(NC(=S)Nc1ccc2oc(=O)ccc2c1)c1ccc(I)cc1	i
CCC(CO)NCc1ccc(OCC(O)c2ccccc2)c(OC)c1 (stereo unspecified)	i
CCOC(=O)c1c(N)n(CCSc2ccccc2)c2nc3ccccc3nc12	i
C=CCC1(NCc2ccccc2)CCN(CC)CC1	7%
O=C(Nc1cc(C(F)(F)F)ccc1N1CCOCC1)c1cc2ccccc2o1	i
O=C1c2ccccc2S(=O)(=O)N1CC(O)Cn1ccc2ccccc21 (stereo unspecified)	i
COc1cccc(OC)c1C(=O)Nc1ccccc1N1CCCC1	i
O=C(NC(=S)Nc1ccc(-c2cc3ccccc3oc2=O)cc1)c1cncc(Br)c1	i
COC(=O)C(C)n1cnc2sc3c(c2c1=O)CCCC3 (stereo unspecified)	i
CCc1ccc(OCC(=O)Nc2ccc3oc(-c4ccccc4)nc3c2)cc1	1%
CCN1CCN(CCCCSc2ccccc2)CC1	i
CCN1C(=O)c2c(C)nc3ccccc3c2C1=O	i
CC1(C)CCCC2=C1CC1C(=O)NC(=O)C1C2 (stereo unspecified)	i
Cc1ccc(OCCOCCN2CCCCC2)c(Br)c1	i
COc1ccc(S(=O)(=O)N2CCC(C(=O)Nc3ccc(NC(C)=O)cc3)CC2)cc1OC	i
COC(=O)C1C(=O)OC(C)(C)C1C(C)C(=O)c1ccc(C)cc1C (stereo unspecified)	i
COc1ccc2c(c1OC)C(=O)NC(C)=C(C(=O)OC(C)(C)C)C2O (stereo unspecified)	i
CC(=O)Nc1ccc(OCC(=O)Nc2ccc(C)cc2)cc1	i
Cc1sc(NC(=O)c2cc(-c3ccncc3)nc3ccc(Cl)cc23)c(C#N)c1C	i
O=C1C2C3C=CC(C3)C2C(=O)N1c1nc2ccccc2s1 (stereo unspecified)	1%
CCCN(CCC)S(=O)(=O)c1ccc(C)cc1	i
CCOc1ccccc1N1CCN(C(=S)Nc2ccc(F)c(Cl)c2)CC1	i
O=C(CC(=O)c1ccccc1)Nc1ccc(F)c(Cl)c1	i
COc1ccc(CCC(=O)NCc2cccc(CNC(=O)CCc3ccc(OC)cc3)c2)cc1	3%
SMILES	Mtb growth
COC(=O)C1=C(C)NC2=C(C(=O)CC(c3ccccc3)C2)C1c1ccc(OC)cc1 (stereo unspecified)	26%
Cc1ccc(Cl)cc1NC(=O)CSCc1ccc([N+](=O)[O-])cc1	i
O=C(O)c1c(-c2ccccc2)oc2ccc(O)cc12	i
COc1ccc(OC)c(C(=O)c2ccc(C(=O)NC3CCCCC3)cc2)c1	4%
COc1ccc(CC(=O)Nc2ccc(Oc3ccc(C)cc3)cc2)cc1	3%
O=C(Nc1ccc2oc(-c3ccccc3)nc2c1)c1ccco1	i
O=S(=O)(Nc1ccc(-c2ccccc2)cc1)c1ccc(Cl)cc1	i
CCOc1ccccc1N(CC(=O)NC(C(C)C)C(C)C)S(=O)(=O)c1ccc(C)cc1	0%
CCN(CC)CCSc1nnnn1-c1ccccc1	0%
CCc1ccc(S(=O)(=O)Nc2ccccc2Cl)cc1	2%
CCC(CC)C(=O)NCCCc1ccccc1	i
COC(=O)c1c(NC(=S)Nc2c(F)c(F)c(C(F)(F)F)c(F)c2F)sc(C(=O)N(C)C)c1C	i
COc1ccc2c(c1)c(=O)oc1cc(OCC(=O)N3CCCC(C)C3)ccc12 (stereo unspecified)	i
COc1ccc(-c2nnc(SCC(=O)Nc3cccc(C(=O)OC(C)C)c3)n2C)cc1	i
COc1cc([N+](=O)[O-])ccc1NC(=O)NN1CCN(C)CC1	i
CSc1ccc(S(=O)(=O)Nc2cccc(CCc3ccccn3)c2)cc1	2%
Cn1nnnc1NCc1c(F)cccc1Cl	i
CCOc1ccc(Nc2nc(N)c(C(=O)c3cccc(OC)c3)s2)cc1	5%
C=CSc1sc(Cl)c(N2CCOCC2)c1[N+](=O)[O-]	i
Cc1ccc(S(=O)(=O)N(C)CC(=O)Nc2cccc(C)c2)cc1	i
COc1cc(CNC23CC4CC(CC(C4)C2)C3)c(Cl)cc1OCC(=O)O	3%
CCOC(=O)C(=O)Nc1ccccc1C(=O)OCC	i
O=C(NC1CCCCC1)C(=S)NC1CCCCC1	5%
C=CCc1cc(C)ccc1OCCOCCNC(C)(C)C	i
CCc1ccc(NC(=O)Cn2cnc3sc(C(=O)Nc4ccccc4)c(C)c3c2=O)cc1	i
SMILES	Mtb growth
COc1ccc(-n2c(-c3ccco3)nc3ccccc3c2=O)cc1	i
CCCCNS(=O)(=O)c1ccc(NC(=O)c2ccco2)cc1	i
Cc1ccc(S(=O)(=O)Nc2nc3ccc(Br)cc3s2)cc1	i
CCC(C)c1ccccc1OCC(=O)NNC(=O)c1ccc(OC)c(OC)c1 (stereo unspecified)	1%
COC(=O)c1cc(NC(=O)Nc2ccc(C)cc2)cc(C(=O)OC)c1	i
O=C(CSc1nnc(-c2ccccc2Cl)n1-c1ccccc1)NC1CCCCC1	i
CCCOc1cccc(C(=O)NC(=S)Nc2ccc(N3CCOCC3)cc2)c1	1%
Oc1cccc(Nc2nc(N3CCOCC3)c3ccccc3n2)c1	i
COc1ccc(CCNC(=O)COc2ccc(Cl)cc2Br)cc1	43%
C=CCN(c1ccc(C(=O)Nc2ccc(CSc3ccccc3)cc2C)cc1)S(C)(=O)=O	i
COc1ccc(-c2cc(C(=O)O)c3cc(Br)ccc3n2)c(OC)c1	i
Cc1cc(-c2csc(N)n2)cc(C)c1C	7%
COc1ccc(NS(=O)(=O)c2ccc(NC(=O)CCSc3ccc(C)cc3)cc2)c(OC)c1	i
O=C(Nc1cccc(NC(=O)c2ccccc2Br)c1)c1cccs1	i
O=C(CSc1nc2ccccc2[nH]1)Nc1ccc(I)cc1	i

Some of the compounds tested, so the mix of outcomes need not match the whole.
